# Screening results as filed in PubChem BioAssay.
# PINK1 modulator – PINK1 expression modulation; PINK1 immunofluorescence, high-content cytometry, 24 h; Potency, µM (series often up to 76.6 µM), without a hit: top-dose activation (PINK1 increase), usual class: activators; hit rate 0.2% among 410,000; active = well fitted activation curve with a large enough effect; inconclusive = small, poorly fitted or top-dose-only effect; inactive = flat fitted curve, though single readings scatter; cell line not stated here;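 further: % of control where 0% means no effect; nearly all actives have a fitted effect of over 65% in size; a mitochondrial uncoupler was the plate control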
#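 Readout is PINK1 immunofluorescence, quantified alongside mitochondrial, cell and nuclear markers by laser-scanning microplate cytometry. Cells from a stable line were exposed to compound titrations (5 concentrations) for 24 hours, with CCCP controls.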
# ClpP mod – qHTS Assay for Activators of ClpP. purified B. subtilis ClpP, FRET peptide cleavage, 20 min. Potency, µM (top dose mostly 57.5 µM), for inactives: top-dose activity change, negative = active. hit rate 1.9% among 340,000. AID 651965, 2013; active = well fitted falling curve with a large enough effect; inconclusive = small, poorly fitted or top-dose-only effect; inactive = no such curve, though single readings can be large or run the other way; further: the source files actives as falling curves though it sought activators and does not explain the sign; nearly all actives have a fitted effect of over 65% in size; many hits overshoot -100%
# Target sequence (P80244 whole entry, looked up): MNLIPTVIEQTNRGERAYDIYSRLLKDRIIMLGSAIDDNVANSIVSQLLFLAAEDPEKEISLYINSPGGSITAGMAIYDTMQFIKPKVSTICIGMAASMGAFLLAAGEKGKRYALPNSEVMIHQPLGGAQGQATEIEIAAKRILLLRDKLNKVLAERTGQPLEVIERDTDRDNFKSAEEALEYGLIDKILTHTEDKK
#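 ClpP 10 microg/mL final, pH 8 Tris/KCl buffer with BSA, glycerol, Tween-20; compound pinned in; FRET-FV substrate; RT 20 min; Ex320/Em430; ΔFRET vs ADEP 5.8 microM, DMSO, no enzyme.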
# * hit, by the source's call; ? = inconclusive. Potency means the concentration at half of the fitted maximal effect. Only part of the results is shown. The share of hits here may be higher or lower than overall.
Compound	PINK1 modulator	ClpP mod
CC(C)c1ccc(NC(=O)C2CCN(S(=O)(=O)c3cccc4nonc34)CC2)cc1	6.1%	0.6%
Cc1ccccc1Cn1c(SCc2ccc(C(=O)NCc3cccs3)cc2)nc2ccncc21	0.1%	-20.5%
COc1ccccc1NC(=O)c1sc2nc(C)c(C(=O)Nc3ccc(C)cc3C)c(-c3ccco3)c2c1N	4.4%	5.1%
COc1cc(NC(=O)c2noc3c2CC(C(C)(C)C)CC3)cc(OC)c1OC (stereo not given)	2.5%	0.9%
CCC(=O)N1c2ccccc2CC1C(=O)NCCN1CCN(c2cccc(C(F)(F)F)c2)CC1 (stereo not given)	1.6%	0.2%
Cc1ccc(NC(=O)NC(C)c2c(-n3cccc3)sc(C)c2C)c(C)c1 (stereo not given)	-0.7%	0.3%
COc1ccc(-c2coc3c2c(C)cc2oc(=O)cc(C)c23)cc1	-1.7%	-4.2%
CC(=O)c1cccc(NC(=O)CSc2nnc3ccc(-c4ccc(Br)cc4)nn23)c1	-8.8%	-4.0%
COc1cccc(C(=O)Nc2ccc(-n3nncc3-c3ccc(Br)cc3)cc2)c1OC	1.3%	0.0%
CCOc1ccc(NC(=O)c2cnc(Nc3ccccc3OC)c3ccccc23)cc1	3.5%	102.3%
CCOc1ccc(CNS(=O)(=O)c2ccc3[nH]c4c(c3c2)CCCC4)cc1OC	5.2%	-18.4%
C#CCNC(=O)c1cc2c(Br)ccc(Br)c2nc1N	1.9%	-10.6%
O=C(CSc1nc2ccccc2nc1Cc1ccc(F)cc1)Nc1ccc2c(c1)OCO2	1.4%	0.0%
CN(Cc1ccccc1)Cc1c(O)ccc2c(=O)c(-c3ccccc3)c(C(F)(F)F)oc12	-3.7%	-3.4%
CCCS(=O)(=O)N1CC(=O)N(c2ccc(C)cc2C)C(C)(C(=O)NC2CCCCCC2)C1 (stereo not given)	-0.7%	-2.9%
CCc1ccc(C2=NN(CCC(=O)NCCc3ccccc3)C(=O)CC2)cc1	-0.3%	-0.4%
COc1ccc(S(=O)(=O)N2CCC[C@H]2C(=O)N2CCC[C@H]2C(=O)N(C)Cc2ccccc2)cc1C	1.7%	2.2%
O=C1NC[C@H](Cc2ccccc2)N(C[C@@H]2CCCN2C[C@H](Cc2ccccc2)N2C[C@H](Cc3ccc(O)cc3)N(CCc3ccccc3)C(=O)C2=O)C1=O	2.2%	0.7%
Cc1cccc(N2CCN(S(=O)(=O)c3c(C(=O)N4CCC(C)CC4)c(C)n(C)c3C)CC2)c1C	3.6%	0.2%
O=C(Nc1nc2n(n1)C(c1ccccc1)C=C(c1ccccc1)N2)c1ccc(Cl)c([N+](=O)[O-])c1 (stereo not given)	1.6%	-3.1%

# Next part.
Compound	PINK1 modulator	ClpP mod
CN(C1CCCCC1)S(=O)(=O)c1ccc2c(c1)c(=O)c(C(=O)N1CCN(c3ccccc3F)CC1)cn2C	0.1%	0.1%
COC(=O)c1nnn(-c2ccc(Br)cc2)c1C(=O)OC	-1.4%	-1.3%
Cc1ccc(N2CC(NC(=O)c3cccs3)CC2=O)cc1C (stereo not given)	0.1%	-1.8%
COc1cc2c(cc1OC)n(Cc1cccc(C(F)(F)F)c1)c(=O)n1nc(-c3ccccc3)nc21	2.7%	?
Cc1ccc(-n2nc(CO)c(C(=O)NCCc3ccccc3)n2)cc1C	3.6%	?
COC(=O)c1ccccc1NC(=O)CCCn1c(=O)c2cccn2c2cccnc21	1.1%	?
COc1cccc(NC(=O)c2cnn(-c3ccccc3)c2-n2cccc2)c1	-1.0%	-2.5%
COc1ccc(C(=O)Nc2cc(-c3cccc(C)c3)nn2-c2ccccc2)cc1	-1.6%	?
COc1ccc(CNc2ncnc3c2nnn3C)cc1	17.1%	-1.2%
Cc1nc2c(c(C)c1CCC(=O)Nc1cccc(C(F)(F)F)c1)c(=O)n(C)c(=O)n2C	0.6%	-3.5%
CCC(CC)C(=O)Nc1ccccc1SCc1cc(=O)c2cccc(C)c2[nH]1	0.4%	-1.4%
CCCN(C(=O)c1cc2c(s1)-c1c(C)cccc1OC2)c1ccc(OCC)cc1	4.1%	-2.5%
COc1cccc(NC(=O)C2CCCN(S(=O)(=O)c3c(C)[nH]c(=O)[nH]c3=O)C2)c1 (stereo not given)	-0.3%	-1.7%
COc1ccc(Nc2c(-c3cccc(OC)c3)nc3nc(C)cc(C)n23)cc1	-0.7%	2.0%
Cc1ccc(NC(=O)Cn2c(=O)oc3cc(S(=O)(=O)N4CCC(C)CC4)ccc32)cc1Cl	?	0.5%
COc1ccc2oc(=O)cc(CN3CCN(C(=O)c4ccccc4Br)CC3)c2c1	2.9%	-9.0%
O=C(NCCc1ccccc1Cl)c1ccc2c(c1)nc1n2CCOC1	-0.1%	-0.2%
O=C(Nc1ccccc1C(=O)OCc1cc(=O)n2c3c(sc2n1)CCCC3)c1cccc(Cl)c1	-1.8%	4.8%
CC1(c2nnnn2-c2ccc3c(c2)OCCO3)CCC(=O)N1CCc1ccc(O)cc1 (stereo not given)	-0.9%	-3.0%
Cc1ccc(-c2c(C(=O)NCCc3ccc(Cl)cc3)oc(=O)c3ccccc23)cc1	-0.1%	-4.4%

# (continued)
Compound	PINK1 modulator	ClpP mod
Cc1ccc(CSC2=Nc3ccccc3C3=NC(CCC(=O)NCCc4ccccc4)C(=O)N23)cc1 (stereo not given)	0.0%	-4.5%
COc1ccc(N2CCN(C(=O)CSc3nc4ccccc4nc3Cc3ccc(Cl)cc3)CC2)cc1	5.0%	-2.6%
CCN1CCN(CCCNC(=O)c2ccc3nc(Cc4ccccc4)oc3c2)CC1	0.0%	-3.4%
COc1cccc(C(=O)NCC2OCCc3ccccc32)c1 (stereo not given)	3.8%	-3.5%
Cc1cc(C)cc(N2CC(c3nc(-c4ccccc4C)no3)CC2=O)c1 (stereo not given)	2.5%	-1.9%
O=C(CCCn1c(=O)c2sccc2n(Cc2c(F)cccc2Cl)c1=O)NCc1ccccc1	3.4%	-0.4%
O=C(Cn1ncc2c([nH]c3ccccc32)c1=O)Nc1cccc(C(F)(F)F)c1	1.9%	-4.4%
Cc1ccc(NC(=O)N2CC3CCCN3c3ccccc32)cc1C (stereo not given)	-1.2%	-3.9%
CCOc1cc(CNC(=O)c2ccc3c(c2)nc2n3CCCCC2)ccc1OC	0.2%	-1.2%
Clc1cccc(-n2cc(-c3ccccc3)c3c(NC4CCCC4)ncnc32)c1	0.8%	-1.5%
Cc1nn(Cc2ccc(F)cc2)c(C)c1NC(=O)c1cc(CC(C)C)on1	0.5%	-3.0%
Cc1oc2ncn(CC(C)C)c(=O)c2c1C(=O)Nc1ccc(Cl)cn1	3.4%	-1.8%
CCc1ccc2c(c1)-c1ccccc1S(=O)(=O)N2CC(=O)N1CCC(C)CC1	-0.8%	0.8%
C[C@H]1COc2cc(N3CC[C@H](O)C3)ccc2S(=O)(=O)N1	-0.7%	-3.3%
COc1ccc(CCN2C(=O)c3[nH]nc(-c4ccccc4O)c3C2c2ccccc2)cc1 (stereo not given)	1.4%	0.1%
CCOC(=O)C1CCCN(C(=O)c2ccc(-n3ccc4ccccc43)s2)C1 (stereo not given)	-0.8%	-17.5%
O=C(CCc1nc2cccnc2n1Cc1cccs1)Nc1cccc(C(F)(F)F)c1	-0.3%	2.5%
COc1ccccc1NC(=O)c1cnc(SCC(=O)N2CCOCC2)n(C)c1=O	-0.1%	-1.4%
Cc1cccc(CN2C(=O)c3ccccc3Sc3ccc(C(=O)NCc4cccs4)cc32)c1	0.8%	-2.0%
Cc1ccc2oc(C(=O)NCC(c3ccc(Cl)cc3)N3CCOCC3)c(C)c2c1 (stereo not given)	0.4%	-5.2%

# Complete entries from above. Values in the order: PINK1 modulator, ClpP mod
# Profile of `CCN1CCN(CCCNC(=O)c2ccc3nc(Cc4ccccc4)oc3c2)CC1` = 0.0%, -3.4%
# Profile of `COc1ccccc1NC(=O)c1sc2nc(C)c(C(=O)Nc3ccc(C)cc3C)c(-c3ccco3)c2c1N` = 4.4%, 5.1%
# Profile of `CC1(c2nnnn2-c2ccc3c(c2)OCCO3)CCC(=O)N1CCc1ccc(O)cc1` (stereo not given) = -0.9%, -3.0%
# Profile of `COc1ccccc1NC(=O)c1cnc(SCC(=O)N2CCOCC2)n(C)c1=O` = -0.1%, -1.4%
# Profile of `O=C(Nc1ccccc1C(=O)OCc1cc(=O)n2c3c(sc2n1)CCCC3)c1cccc(Cl)c1` = -1.8%, 4.8%

# (next part)
Compound	PINK1 modulator	ClpP mod
Cc1ccc(C(=O)NC2(C(F)(F)F)N=C(c3ccccc3)N(C3CCCCC3)C2=O)cc1 (stereo not given)	2.2%	-0.6%
COc1cccc(-c2nc(SCC(=O)NCC3CCCO3)c(-c3ccc(C)cc3)[nH]2)c1 (stereo not given)	1.0%	?
CC(C)Cn1c(/C=C/c2ccc(F)cc2)nc2ccccc21	4.9%	3.7%
Cc1ccc(CNC(=O)c2cc(NS(=O)(=O)c3ccc(C)cc3)ccn2)cc1	-0.7%	-9.5%
Cc1cc(C)cc(NC(=O)Cn2nnc(-c3ccccc3F)n2)c1	0.0%	0.0%
CCN(c1ccccc1)S(=O)(=O)c1nnc(NC(=O)COc2ccc(OC)cc2)s1	0.4%	-1.3%
COc1cc2c(cc1NC(=O)c1ccccc1C)n(C)c(=O)n2C	1.4%	1.1%
Cc1cccc(Nc2c(-c3cccs3)nc3nc(C)cc(C)n23)c1	0.7%	-0.6%
CCOc1ccc(-n2nc(CO)c(C(=O)NCc3cccnc3)n2)cc1	-0.2%	6.31µM*
Cc1c(NC(=O)Nc2ccc(Cl)c(Cl)c2)sc2nc3n(c(=O)c12)CCC(C)CC3 (stereo not given)	3.0%	-0.2%
O=C(NCCc1ccccc1)c1c[nH]c2ccc(S(=O)(=O)Nc3ccccc3F)cc2c1=O	3.4%	-7.5%
Cc1ccccc1C(=O)Nc1ccc(OCc2cc(=O)n3cccc(C)c3n2)cc1	1.1%	-24.4%
Cc1cccc(C(=O)Nc2cccc(OCc3cc(=O)n4ccccc4n3)c2)c1	13.4%	-9.6%
Oc1ccc(Nc2nc(-c3ccc(Cl)cc3)nc3ccccc23)cc1	1.0%	-0.3%
O=C(Cc1ccccc1)Nc1cc(-c2nc3cc(Cl)ccc3o2)ccc1Cl	5.9%	-20.8%
Cc1[nH]c2ccccc2c1C(c1ccccc1)c1ccc(Cl)s1 (stereo not given)	23.4%	-5.3%
O=C(Cn1cc(S(=O)(=O)Cc2ccccc2Cl)c2ccccc21)Nc1cccc(C(F)(F)F)c1	?	-2.8%
Cc1cc(C)c(NC(=O)C(C)n2c(=O)cc(-c3ccccc3)c3c(C)nn(C)c32)c(C)c1 (stereo not given)	1.9%	0.2%
N#CC1=C2SCN(C3CCCCC3)CN2C(=O)CC1c1ccc(Cl)cc1 (stereo not given)	1.8%	-0.1%
CC(C)c1ccc(N2C(=O)CSC23C(=O)N(Cc2ccccc2)c2ccccc23)cc1 (stereo not given)	1.5%	-0.6%

# Continuation:
Compound	PINK1 modulator	ClpP mod
CCC(CC)C(=O)Nc1nnc(S(=O)(=O)N(C)c2cc(C)cc(C)c2)s1	-1.4%	-1.3%
O=C(NC1CCCCC1)c1cc2c(Cl)nc3ccccc3c2s1	3.4%	-0.6%
Cc1cc(C)cc(NC(=O)C(=O)NCC(c2cccnc2)N2CCc3ccccc3C2)c1 (stereo not given)	-1.0%	-0.4%
O=C(CS(=O)(=O)c1cccc2nsnc12)Nc1ccc(F)cc1F	-1.1%	0.7%
CCOc1ccc(NC(=O)CN(Cc2ccccc2)S(=O)(=O)c2ccc3nc(C)sc3c2)cc1	-1.8%	-4.6%
Cc1nc(-c2ccccc2)sc1-c1ccc(SCC(=O)Nc2ccc(F)cc2F)nn1	1.3%	-8.0%
CCc1nn2c(=O)cc(COC(=O)c3cccc(NC(=O)CCc4ccccc4)c3)nc2s1	-0.4%	31.6µM*
CN1C(=O)c2ccccc2Sc2ccc(NC(=O)c3ccccc3F)cc21	11.5%	-13.5%
COc1ccc(NC(=O)N2CCN(Cc3nc4ccc(C)cc4o3)CC2)cc1OC	-0.1%	-0.7%
CCN(CC)C(=O)c1sc2c(c1C)c(=O)n(CCc1ccccc1)c(=O)n2Cc1ccc(F)cc1Cl	1.3%	2.8%
CCCOc1ccc(C2C(=O)N(C3CCCCCC3)CC(=O)N2C(C)C)cc1OC (stereo not given)	1.6%	1.1%
CN(C)c1ccc(/C=C2\C=Cc3ccccc32)c(F)c1	15.3%	0.5%
COc1cccc(NC(=O)Cn2nc(-c3ccncc3)ccc2=O)c1	1.0%	-0.7%
CCCCN1CCCc2cc(CN(CCCN3CCOCC3)C(=O)Nc3ccc(CC)cc3)ccc21	3.0%	-3.5%
COc1ccccc1Cc1nc2ccccc2nc1SCC(=O)NCc1ccc(F)cc1	15.6%	-0.3%
COc1ccc(-c2nc3ccccc3o2)cc1NC(=O)c1cccc2c(Cl)cccc12	-1.5%	-2.5%
